High-throughput results (PubChem)
AF4-AF9 inh: blocks AF4 peptide binding to human AF9; AID 651704; AlphaScreen, biotin-AF4 peptide binding to FLAG-AF9; 350,000 compounds, 0.47% hits; inhibition, % at 10 µM; P42568;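 active = every replicate reaching a set inhibition limit, whatever the replicate mean, cut at about 25% in these data; inconclusive = mean inhibition reaches that limit but some replicates miss it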;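 also: 0% = plate neutral control median and 100% = total signal loss; the record names both 10 and 1 µM as test concentration; the first replicate is given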
Target sequence (P42568 whole entry, looked up): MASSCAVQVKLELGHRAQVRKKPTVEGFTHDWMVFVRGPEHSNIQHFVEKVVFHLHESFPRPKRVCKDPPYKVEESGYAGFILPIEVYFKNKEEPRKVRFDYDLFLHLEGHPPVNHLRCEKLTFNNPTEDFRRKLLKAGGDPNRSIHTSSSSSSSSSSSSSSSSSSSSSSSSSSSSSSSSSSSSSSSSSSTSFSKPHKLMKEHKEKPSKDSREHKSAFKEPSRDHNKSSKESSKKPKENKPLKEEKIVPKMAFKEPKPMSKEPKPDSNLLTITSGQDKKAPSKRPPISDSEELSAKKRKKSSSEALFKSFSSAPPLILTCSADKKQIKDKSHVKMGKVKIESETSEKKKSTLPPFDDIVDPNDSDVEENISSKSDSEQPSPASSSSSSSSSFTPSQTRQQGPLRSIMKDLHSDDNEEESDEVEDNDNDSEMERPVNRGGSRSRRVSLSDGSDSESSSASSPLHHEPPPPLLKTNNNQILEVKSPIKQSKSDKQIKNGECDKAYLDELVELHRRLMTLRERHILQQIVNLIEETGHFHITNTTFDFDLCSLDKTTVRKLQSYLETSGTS
Vif TR-FRET: HIV-1 Vif–A3G interaction blockers – biochemical, TR-FRET, GST-Vif 1-94, biotin-A3G peptide, dose response retest, primary screen (AID 1117319); TR-FRET GST-Vif / biotin-A3G peptide binding; higher % means a stronger effect; test concentration not given here; strong numbers were not always called active; inhibition, %; hits with a dose series show IC50 in µM; 260,000 compounds, 0.57% hits;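 active = above the screen mean plus three standard deviations and confirmed in dose response; inconclusive = results disagree or hit not tested in dose response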;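 also: Vif residues 1-94 fused to GST binding biotinylated APOBEC3G peptide 110-148; 0% = full assay without inhibitor and 100% = GST in place of GST-Vif; retest series ran down from 100 µM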
LANA-H2B inh: blocks KSHV LANA binding to histone H2A/H2B; Q9QR71; cell-free LANA-H2A/H2B peptide, fluorescence polarization; inhibition, % (no concentration beside the values); 320,000 compounds, 0.6% hits; AID 2629; in the data active = inhibition mostly above about 10%, no sharp cut-off; inactive = mostly below about 6.7%;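 also: stock transfer was 7.5 nL into about 10 µL; 0% = median of vehicle wells and 100% = median of positive control wells; one replicate is shown; the record names a cut of 25% in any replicate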
A1 inh: inhibitors of the anti-apoptotic protein A1, read as caspase activation; MEF A1-2A-BIM cells, Caspase-Glo 3/7 luminescence, 3 h; percent of clofoctol response, vehicle zero; caspase activation, % (no concentration beside the values); 330,000 compounds, 0.066% hits; AID 2462;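 active = over half of replicate activation scores above 10%, or exactly half above 10 with the replicate mean above 10; inconclusive = replicate mean below 10 yet half the replicates above 10; inactive = over half of replicates below 10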;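 also: wells of about 30 µL received 50 nL stock; many hits fall short of the cut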
Calb FLC: C. albicans growth modulation with fluconazole; growth inhibition, % (test concentration not listed); C. albicans CaCi-2 (fluconazole-resistant clinical isolate) + fluconazole, Alamar Blue growth, 48 h; 300,000 compounds, 0.57% hits;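 active = most replicates above 75%; inconclusive = exactly half above 75%; inactive = most below 75%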;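 also: all wells also contain fluconazole at 8 µg/ml as a sub-toxic cotreatment; 0% = median of DMSO wells and 100% = median of geldanamycin control wells; wells of about 8 µL received 7.5 nL stock; the first replicate is given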
RanGTP-Impb inh: disruptors of Ran-importin-beta complex formation – biochemical, FRET, CFP-Ran, YFP-importin-beta, homogeneous, primary screen | 300,000 compounds, 1.1% hits | inhibition, % (no concentration beside the values) | cell-free CFP-Ran/YFP-importin-beta FRET ratio;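 active = most replicates above 15%; inconclusive = exactly half above 15%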;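 also: 0% = DMSO wells and 100% = Ran loaded with GDP instead of GTP; wells of about 40 µL received 100 nL stock; the first replicate is given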
T cruzi repl: T. cruzi replication inhibition; T. cruzi beta-gal in NIH3T3, luminescence, 90 h; inhibition, % (test concentration not listed); 300,000 compounds, 1.4% hits; AID 1885;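 active = mean inhibition across valid replicates above about 55%, limit read from the data; inconclusive = mean below that limit but half or more replicates reach it; inactive = mean below it, under half of replicates reach it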;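 also: signal also drops with host cell toxicity which is not excluded here; 0% = plate median of DMSO wells and 100% = zero luminescence signal; higher percent means less beta-gal luminescence so fewer parasites; stock transfer was 50 nL into about 50 µL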
Beta apoptosis: beta cell apoptosis inhibition; INS-1E cytokine-induced death, ATP luminescence, 48 h; percent of positive-control rescue, neutral wells zero; protection from apoptosis, % (no concentration beside the values); 300,000 compounds, 0.8% hits; AID 435005;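 active = all replicates at 75% or more, or half of them and the mean; inconclusive = half reach 75% but not the mean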;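 also: 0% = cytokine-treated negative control wells and 100% = positive control rescue; higher means more ATP so stronger rescue from cytokine killing; wells of about 40 µL received 100 nL stock; the first replicate is given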
* hit, by the source's call; ? = inconclusive; / = not tested or not shown; & = joins results of further samples.

SMILES	AF4-AF9 inh	Vif TR-FRET	LANA-H2B inh	A1 inh	Calb FLC	RanGTP-Impb inh	T cruzi repl	Beta apoptosis
COc1c(S(=O)(=O)NCCN2CCOCC2)ccc(Cl)c1Cl	/	18%	4.9	0.6	17	0.4	7	1
CC1(C)CC(NCc2ccccc2)CCO1 (stereo not drawn)	-13	2%	7.2	0.9	-2	0.2	-9	-9
O=C(c1nc2ccccn2c1CN1CCCC(O)C1)N1CCN(C2CCCCC2)CC1 (stereo not drawn)	-0.1	/	3.3	-1.4	-2	103*	-10	/
CN(C)CCCN(C(=O)c1ccc(S(=O)(=O)N(C)C)cc1)c1nc2ccc(F)cc2s1	2.6	5%	-4.5	-0.3	2	1.8	67*	-4
OCC1(O)OC[C@@H](O)[C@H]1O (stereo partly drawn)	-0.2	/	2.9	0.6	-6	1.9	-8	3
Cn1c(=O)n(C)c2cc(C(=O)Nc3ccc(Br)cc3)ccc21	5.2	-2%	3.5	2.0	-29	-1.6	-7	-5
CCn1c(SCC(=O)Nc2nnc(C)s2)nnc1-c1ccco1	5.9	1%	-3.7	0.3	-9	-3.8	-9	5
Nc1nc2ccc(Oc3ccccc3)cc2s1	/	2%	/	/	-1	4.1	-29	/
Cc1cc(C(=O)CSc2nc(N)cc(=O)[nH]2)ccc1F	-0.3	-5%	-1.5	0.2	-4	0.6	-12	-5
CCCCc1ccc(NC(=S)NCCc2ccc(F)cc2)cc1	0.1	-2%	0.1	0.2	-46	/	46	-4
COc1ccc(NC(=O)COC(=O)C2CC2)cc1S(=O)(=O)N1CCCCC1	1.6	4%	-6.2	0.1	/	/	/	-3
O=C(Nc1ccc(Br)cc1Cl)c1ccc(OCC2CCCO2)cc1 (stereo not drawn)	-1.9	7%	6.2	-0.4	/	/	/	-6
Cc1cc(C)n(CCc2nc(-c3ccc(C(C)(C)C)cc3)cs2)n1	-2.2	/	-1.9	0.1	-17	4.9	19	37
Cc1oc2c(c1C(=O)NCc1cc(C(=O)O)co1)CCCC2	/	7%	-0.6	0.1	-20	3.6	-1	-2
Cc1cccc(OC(=O)CCN2C(=O)C3C4C=CC(C5CC45)C3C2=O)c1C (stereo not drawn)	0.8	/	-4.3	0.3	23	?	-11	0
NNC(=O)c1ccc(COc2ccccc2)cc1	0.3	32%	-3.2	-0.3	27	0.0	2	-5
c1ccc(-c2nc(C3CCCCC3)no2)cc1	/	23%	2.7	-8.5	0	-3.3	2	-6
CCCCN(CCCC)CC(O)COc1ccc(Br)cc1 (stereo not drawn)	6.2	?	2.8	0.3	-18	-3.8	13	7
CCCCCC(=O)Nc1cc2[nH]c(=O)cc(COC)c2cc1C	/	-14%	3.4	1.3	0	?	-4	4
CC(C)[C@H](NC(=O)c1ccc([N+](=O)[O-])cc1Cl)C(=O)N1CCN(C/C=C/c2ccccc2)CC1	6.0	2%	-1.7	1.1	/	/	/	37
C=CCOC(=O)C1C(=O)CC(C)(O)C(C(=O)OCC=C)C1c1ccc(OCC)cc1 (stereo not drawn)	/	-12%&1%	2.1	0.7	4	-2.0	-3	-6
Cc1ccc(C(=O)NC(=S)Nc2nc(-c3cccc([N+](=O)[O-])c3)cs2)c(Cl)c1	/	/	5.3	-0.4	-7	-2.3	6	4
Clc1cccc(Cl)c1Cn1c(-c2cccnc2Cl)nc2ccccc21	11	27%	1.5	0.3	34	-1.3	25	-8
O=CNCCCc1nc2ccccc2n1Cc1cccc2ccccc12	/	-2%	-1.3	0.6	?	-1.5	/	-3
COc1cc(C2Nc3ccccc3C(=O)N2NS(C)(=O)=O)ccc1O (stereo not drawn)	-15	7%	2.3	0.5	-7	2.4	-9	-16
O=C(O)CC(NCc1ccco1)C(=O)Nc1cccc(O)c1 (stereo not drawn)	-0.3	29%	-0.2	1.1	7	6.8	-15	-2
CC(C)(C)CC(=O)Nc1nnc(C(F)(F)F)s1	/	4%	4.0	0.2	82*	9.3	-10	3
O=C(CSC(=S)N1CCOCC1)Nc1nc(=O)c2ccccc2s1	/	5%	11	0.2	52*	1.1	?	3
O=C(OCCCc1ccncc1)c1ccc(S(=O)(=O)N2CCOCC2)cc1	3.9	0%	-0.2	0.6	9	3.2	12	-10
CN(CC(=O)Nc1ccc(Cl)c(C(F)(F)F)c1)C(=O)c1ccc2c(c1)NC(=O)CS2	2.0	/	3.3	-0.4	/	/	/	5
Cc1ccc2nc(Nc3nc(-c4ccccc4)cc(=O)[nH]3)nc(C)c2c1	/	5%	-8.8	-0.1	3	-0.6	32	-1
O=C1C=C(c2cc3ccccc3s2)C[C@@H](c2ccc3c(c2)OCO3)C1	0.6	/	-7.3	-0.6	/	/	/	-17
O=C(Nc1ccc(F)cc1F)c1ccc(-n2cccn2)c([N+](=O)[O-])c1	-2.0	3%	1.3	-8.9	1	2.4	4	4
CC1CN(c2ncnc3c2c(-c2ccccc2)cn3-c2ccc(F)cc2)CC(C)O1 (stereo not drawn)	5.9	6%	-6.8	0.2	37	-3.1	32	4
COc1ccccc1C(=O)NC(=O)COC(=O)/C(=C/c1ccccc1)NC(C)=O	-12	0%	-9.7	0.6	2	?	-8	-6
CC(C)N1CCN(Cc2nc3ccccc3s2)CC1CCO (stereo not drawn)	-7.2	14%	0.6	-0.4	-9	-0.2	31	-13
Oc1ccc(/C=N/Nc2cc(N3CCOCC3)nc(N3CCOCC3)n2)cc1O	19	?	3.7	1.0	-3	2.2	6	6
CN(C)CCNC(=O)C1CC(=O)N(c2ccc(F)c(Cl)c2)C1 (stereo not drawn)	3.7	16%	94*	0.3	-3	8.6	37	5
CCCC(NCC(O)COc1ccc(-c2ccccc2)cc1)c1ccccc1 (stereo not drawn)	-6.6	3%	-3.1	0.2	-48	-2.0	66*	-3
O=C(CSc1nc2ccccc2[nH]1)N/N=C/c1ccco1	-0.4	/	-6.0	0.5	-5	?	-7	1
COC(=O)C1=C(C(=O)OC)C2(OC1c1ccc(Br)cc1)C(=O)c1ccccc1C2=O (stereo not drawn)	/	-9%	3.4	0.9	-2	0.4	-5	-5
COc1ccc(OCc2nn3c(-c4ccccn4)nnc3s2)cc1	/	3%	-0.5	-0.2	8	5.1	-2	2
CCC1(CC)NC(=O)N(CC(=O)OC(C)C(=O)Nc2ccc(NC(C)=O)cc2)C1=O (stereo not drawn)	9.6	8%	-5.9	0.0	-5	/	-10	-8
COc1ccc(Sc2cnn(-c3ccccc3)c(=O)c2Cl)cc1	/	-15%	-0.7	-0.2	11	-2.1	-25	-25
O=C(NCc1ccco1)c1c(F)cccc1Cl	/	-5%	-3.5	-2.3	-4	2.3	-15	-2
CCCCCCC[C@@H](C/C=C/CCC(=O)N(C)C/C(=C/Cl)C/C(=C\C(=O)N1CC(OC)=CC1=O)OC)OC	-1.2	-3%	/	-0.7	/	/	/	39
O=C(CN1C(=O)NC2(CCCC2)C1=O)Nc1cc(Cl)ccc1N1CCCCC1	0.1	/	-4.2	-0.1	-8	-2.2	11	1
CCOC(=O)C1=C(N)OC2=C(C(=O)CCC2)C1c1cccs1 (stereo not drawn)	/	1%	-1.3	0.2	12	5.5	-15	0
COc1ccccc1C(=O)NC(=O)COC(=O)c1ccc(C)o1	-0.2	/	-2.1	1.2	2	-0.8	-8	-5
CCCOC(=O)CSc1nc(N)c(C#N)c(CC)c1C#N	/	-2%	-4.3	2.3	6	-4.1	7	-1
COc1ccc(-n2nnnc2-c2cnc3cc4c(cc3c2C)OCO4)cc1	/	2%	-0.1	-0.7	39	?	2	4
CC(C)CCNC(=O)Cc1ccccc1[N+](=O)[O-]	/	3%	-7.0	-0.2	2	1.2	-14	-10
Cc1ccc(NNC(=O)c2ccno2)cc1Cl	0.7	?	-4.6	0.0	0	1.3	28	99*
O=C(Nc1c(-c2cccs2)nc2ccccn12)c1ccc2ccccc2c1	/	/	-3.1	-0.1	4	1.2	-1	7
O=C(Nc1ccc(CN2CCOCC2)cc1)c1ccc(-c2ccc(Br)cc2)o1	16	-21%&-26%	1.3	0.1	55	-3.6	21	/
CCC(=O)Nc1ccc(Cl)c(NC(=O)c2cccnc2)c1	/	-4%	0.2	0.2	5	4.7	-10	-3
COc1n[nH]c(C(=O)Nc2cc(Cl)ccc2Cl)c1[N+](=O)[O-]	-3.3	17%	8.8	-2.4	64	-0.8	?	26
Cc1ccc(CN2CCN(Cc3cccc(C)n3)CC2CCO)cc1 (stereo not drawn)	1.8	32%	-1.0	0.7	?	0.5	46	3
COc1ccc(Cc2n[nH]c(=O)c3ccccc23)cc1OC	/	6%	1.4	0.7	-1	?	3	-2
O=C(Nc1cc(S(=O)(=O)N2CCCCC2)ccc1O)c1ccccc1NS(=O)(=O)c1ccc(F)cc1	-0.2&5.1	6%&7%	-5.4	0.3	43	-0.4	5	4
(listing goes on)
SMILES	AF4-AF9 inh	Vif TR-FRET	LANA-H2B inh	A1 inh	Calb FLC	RanGTP-Impb inh	T cruzi repl	Beta apoptosis
O=C(COC(=O)c1ccco1)Nc1ccc(Cl)cn1	-2.0	2%	-8.6	0.1	/	/	/	0
CN(C(=O)C1CCN(c2ncnc3c2nc2n3CCCCC2)CC1)C1CCCCC1	-0.9	/	-4.2	-0.3	-8	5.6	5	3
CCCc1cc(=O)[nH]c(SCc2ccccc2)n1	/	11%	1.7	0.1	6	-1.3	11	-4
CCN(CC)C(=O)CSc1nc2cc3c(cc2c(=O)n1CCCC(=O)NCc1ccc(OC)cc1)OCO3	-4.5	-10%	-0.3	-0.2	-7	-4.3	13	3
COc1cccc(NC(=S)NNC(=O)c2ccccc2OC(F)F)c1	/	13%	2.0	-3.2	?	4.9	8	3
Cc1nc(N2CCOCC2)[nH]c(=O)c1C	-1.1	2%	1.5	0.2	15	0.1	-2	-4
Cc1ccc2nc(NC(=O)CN3C(=O)NC4(CCCC4)C3=O)sc2c1	-14	-1%	3.2	-1.0	8	-0.5	-15	-4
COc1ccc(C(=O)COC(=O)c2cnc(C)cn2)c(OC)c1	3.6	-3%	1.7	1.8	-8	-1.1	2	0
CCC(C)NC(=O)C(=O)NCc1ccncc1 (stereo not drawn)	/	20%	2.0	-0.3	57	7.1	-10	-2
CCOc1ccc(/C=C2\SC(=S)N(CCCC(=O)NCCCN3CCOCC3)C2=O)cc1	5.2	/	3.2	-1.4	-4	1.2	27	-17
CCOC(=O)c1c(C)oc2c1cc(O)c1ccccc12	/	3%	-2.3	0.1	9	-5.1	-11	-11
O=C(N/N=C\c1cccnc1)C1c2ccccc2Oc2ccccc21	-12	26%	-4.0	0.0	-25	-1.9	5	-6
COc1ccc(C2(c3ccc(OC)cc3)NC(=O)N(CC(=O)Nc3cc(C)ccc3OC)C2=O)cc1	-18	/	-1.9	-0.1	-9	0.7	21	/
O=C(COC(=O)c1nc(Cl)ccc1Cl)NC1CCCCC1	-1.5	2%	3.3	0.0	/	/	/	0
O=C(COC(=O)CCc1ccc(S(=O)(=O)N2CCCCC2)cc1)Nc1cccc2ccccc12	/	/	-0.4	?	23	-3.6	-7	4
CNCc1ccccc1Sc1cccc2ccccc12	/	-4%	-5.7	0.2	-23	6.7	-20	13
